hNpr1 antagonist: antagonists of human natriuretic peptide receptor Npr1; P16066; HEK293 hNpr1 GloSensor cGMP, ANP-stimulated luminescence; Potency, µM (titrated, usually from 46.3 µM), for inactives: at the top dose activity change, negative = inhibition, hits mostly inhibitors; 76,000 compounds, 1.6% hits; AID 1347048; active = well fitted inhibition curve with a large enough effect; inconclusive = small, poorly fitted or top-dose-only effect; inactive = no such curve, though single readings can be large or run the other way;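 further: nearly all actives have a fitted effect of over 60% in size; nearly all hits also lower the signal before the agonist is added; a reference antagonist and vehicle were the controls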
Target sequence (P16066 whole entry, looked up): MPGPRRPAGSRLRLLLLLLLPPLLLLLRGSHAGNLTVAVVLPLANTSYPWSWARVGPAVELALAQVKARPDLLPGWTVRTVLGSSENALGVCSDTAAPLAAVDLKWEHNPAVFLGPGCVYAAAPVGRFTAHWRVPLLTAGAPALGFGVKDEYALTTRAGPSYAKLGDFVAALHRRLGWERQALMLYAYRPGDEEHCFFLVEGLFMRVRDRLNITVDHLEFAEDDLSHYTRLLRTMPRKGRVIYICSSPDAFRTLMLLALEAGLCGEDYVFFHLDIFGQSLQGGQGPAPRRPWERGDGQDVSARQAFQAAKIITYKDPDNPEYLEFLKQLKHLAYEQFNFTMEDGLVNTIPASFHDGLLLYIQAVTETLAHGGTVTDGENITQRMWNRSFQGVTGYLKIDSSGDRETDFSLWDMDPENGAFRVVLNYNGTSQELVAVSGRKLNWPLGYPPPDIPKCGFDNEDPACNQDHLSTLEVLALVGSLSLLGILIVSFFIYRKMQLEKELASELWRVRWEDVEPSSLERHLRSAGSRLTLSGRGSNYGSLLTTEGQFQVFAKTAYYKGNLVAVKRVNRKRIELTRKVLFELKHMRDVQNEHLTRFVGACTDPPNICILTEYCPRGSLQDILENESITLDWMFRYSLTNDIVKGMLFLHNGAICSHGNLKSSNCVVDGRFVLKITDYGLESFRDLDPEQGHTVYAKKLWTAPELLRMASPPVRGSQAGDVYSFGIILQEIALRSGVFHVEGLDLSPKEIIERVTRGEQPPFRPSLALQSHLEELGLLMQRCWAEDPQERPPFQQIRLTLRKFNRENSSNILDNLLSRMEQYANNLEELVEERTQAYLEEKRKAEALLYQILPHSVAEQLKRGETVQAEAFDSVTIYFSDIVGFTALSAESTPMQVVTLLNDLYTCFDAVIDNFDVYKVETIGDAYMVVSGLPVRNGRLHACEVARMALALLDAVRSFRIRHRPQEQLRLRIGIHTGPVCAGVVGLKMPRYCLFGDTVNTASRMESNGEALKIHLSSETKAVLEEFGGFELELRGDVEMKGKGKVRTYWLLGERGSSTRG
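Compound pre-incubated 30 min at room temperature on GloSensor-loaded HEK293 cells stably carrying hNpr1 and the pGS-40F cGMP biosensor. Stimulation uses hNppA at 0.1 nM final; luminescence is taken at baseline and 20 min post-agonist.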
Starred values were filed as active, the others as inactive; [ ] = another dose, or the depositor's remark. On the % scale 0 is the no-effect control and ±100 the full control effect; potency means the concentration at half of the fitted maximal effect. Some of the compounds tested; rates above refer to the full screens.

Cc1ccc2nc(C3CCN(Cc4ccc(-c5cccs5)cc4)CC3)[nH]c(=O)c2c1 was read as hNpr1 antagonist -22.2%.
O=C1NCCOCCCN(C(=O)c2nccc3ccccc23)[C@H]2CCCC[C@@H]12 was read as hNpr1 antagonist -7.5%.
Screening CCC1c2nccn2CCCN1C(=O)CCc1c(C)noc1C (centres undefined) returned hNpr1 antagonist 1.3%.
Screening C[C@@H](NC(=O)N1CCOC[C@H]1c1ncc(-c2ccc(Cl)cc2)[nH]1)c1ccccc1 returned hNpr1 antagonist -20.0%[70.6 µM].
Screening CCC1Oc2ccc(NC(=O)C(CC)c3ccccc3)cc2CN(Cc2ccccc2)C1=O (centres undefined) returned hNpr1 antagonist -2.4%.
COCCC(=O)N1CCC(c2noc(C3CC3)n2)C1 (centres undefined) was read as hNpr1 antagonist 6.7%.
Screening CCC1(N2CCN(C(=O)c3ccc(Cl)s3)CC2)CCN(S(C)(=O)=O)C1 (centres undefined) returned hNpr1 antagonist 2.2%.
`c1cncc(-c2cnc3n[nH]c(-c4ccc5c(c4)OCO5)c3n2)c1` gave hNpr1 antagonist -18.4%[70.6 µM].
CCc1noc(-c2cn(C3CCN(C(=O)c4ccc(C)c(F)c4)CC3)nn2)n1 was read as hNpr1 antagonist -2.6%.
Screening CN1CCCN(CCC(=O)N2CCC3(CC2)OCCCC3O)CC1 (centres undefined) returned hNpr1 antagonist 4.3%.
For CCc1ccc(NC(=O)Cn2nc3n(c2=O)CCCC3)cc1 the results were hNpr1 antagonist -0.3%.
For COCC(=O)N[C@@H]1CCC[C@@H](C(=O)NCc2cc(F)cc(F)c2)CC(=O)N(C)C1 the results were hNpr1 antagonist -3.4%[70.6 µM].
`CCNC(=O)N1CCCN(S(C)(=O)=O)C(c2ccccc2)CC(=O)NCC1` (centres undefined) gave hNpr1 antagonist 4.0%.
Cc1ccc(C2NC(=O)N(CC(=O)NCc3ccccc3Cl)C3=C2C(=O)OC3)cc1 (centres undefined) was read as hNpr1 antagonist -4.0%.
Cn1ncc(N2CCN(CC3(O)CNCCOC3)CC2)cc1=O (centres undefined) was read as hNpr1 antagonist 1.0%.

The last two records of the part before lead into the next.
Cc1ccc(C2NC(=O)N(CC(=O)NCc3ccccc3Cl)C3=C2C(=O)OC3)cc1 (centres undefined) was read as hNpr1 antagonist -4.0%.
Cn1ncc(N2CCN(CC3(O)CNCCOC3)CC2)cc1=O (centres undefined) was read as hNpr1 antagonist 1.0%.
COCCN1C(=O)CC[C@]2(C(=O)NCc3cc(F)ccc3F)CCCC[C@@H]12 was read as hNpr1 antagonist -0.9%.
COc1ccc(N2CCN(C3CCCN(C(=O)C(C)(C)N)C3)CC2)cc1 (centres undefined) was read as hNpr1 antagonist 4.6%.
Screening O=C(NCc1ccco1)C1CN(S(=O)(=O)c2ccccc2)CC12CCCCC2 (centres undefined) returned hNpr1 antagonist -2.6%.
COc1ccc(C(=O)N2CCC[C@H]2c2nc(-c3ccc(OC)cc3)no2)cc1 was read as hNpr1 antagonist 0.6%.
`O=C(Cc1c[nH]c2ncc(-c3cccc(CO)c3)cc12)NCc1cccnc1` gave hNpr1 antagonist -9.4%[70.6 µM].
Cc1ccc(CN2CCC(CNc3nccc(-c4ccccn4)n3)CC2)o1 was read as hNpr1 antagonist 5.1%.
Screening O=C1Cc2c(-c3cc4ccccc4o3)n[nH]c2CN1Cc1ccccc1 returned hNpr1 antagonist 2.9%[70.6 µM].
COc1ccc(CN2C(=O)C3(CCOCC3)CC2c2nnnn2C(C)(C)C)cc1 (centres undefined) was read as hNpr1 antagonist -1.3%.
Screening O=C(C1CCCCC1)N1CCC2(CC1)CC(N(Cc1ccc(F)cc1)C1CC1)CCO2 (centres undefined) returned hNpr1 antagonist -20.7%.
`Cc1cccc2c1nc1n2[C@@H](CNC(=O)c2ccncc2)COC1` gave hNpr1 antagonist 2.4%[70.6 µM].
N#Cc1ccc(O[C@@H]2COCC[C@H]2NC(=O)CCn2ccc(=O)[nH]c2=O)cc1 was read as hNpr1 antagonist 1.9%.
`COCCN1CCCCCC(O)c2cc(C(=O)N(C)Cc3ccc(N4CCCCC4)cc3)ccc21` (centres undefined) gave hNpr1 antagonist -24.4%.
Screening O=C(c1ccnc2ccccc12)N1CCC2(CC1)Nc1ccccc1NC2=O returned hNpr1 antagonist inconclusive.
Screening CN(C)C[C@@H]1CN(Cc2ccccc2)C[C@H]1NC(=O)c1ccn(C)n1 returned hNpr1 antagonist 0.3%.
CN(Cc1cccnc1)c1ccc2ncc(Nc3cccc(C(F)(F)F)c3)n2n1 was read as hNpr1 antagonist 12.6µM*.
`CNC(=O)c1cc(-c2ccc(C)cc2)cc2c1OCCN2Cc1cccnc1` gave hNpr1 antagonist 6.0%[70.6 µM].
Screening Cc1cnc(C(=O)NC2C[C@H]3CC[C@@H](C2)N3C(=O)c2ccc(Br)o2)cn1 (some centres undefined) returned hNpr1 antagonist 4.5%.
CCOC(=O)C1=CN(CC(=O)NCc2ccc(Cl)cc2)S(=O)(=O)N=C1C was read as hNpr1 antagonist -1.7%.
Screening Cc1ncoc1C(=O)N1CC(c2noc(C3CCCN3CC3CC3)n2)C1 (centres undefined) returned hNpr1 antagonist 0.9%.
CCc1cc(=O)n(CC(=O)Nc2ccc(OC)cc2)c(-c2cccc(F)c2)n1 was read as hNpr1 antagonist inconclusive.
`CC(C)NC(=O)N1CCCC(c2noc(COc3ccccc3F)n2)C1` (centres undefined) gave hNpr1 antagonist 0.0%.
For O=C([C@@H]1C[C@H](F)CN1C(=O)Nc1cccc(Cl)c1)N1CCCCC1 the results were hNpr1 antagonist 1.7%.
Screening Cc1ccccc1CN1CC[C@@H]2CN(S(C)(=O)=O)[C@@H]2C1 returned hNpr1 antagonist 5.0%.
`CN1CCN(Cc2nc(C3(O)CCN(C(=O)c4ccccc4F)CC3)cs2)CC1` gave hNpr1 antagonist 0.3%[70.6 µM].
O=C(COc1ccccc1)N1CCOc2ccc(CN3CCc4ccccc4C3)cc2C1 was read as hNpr1 antagonist inconclusive.
For Cn1cc(-c2ccncc2)cc1C(=O)N1CCN(c2ccccc2Cl)CC1 the results were hNpr1 antagonist -5.9%.
For Clc1cc(N2CCN(c3ncccn3)CC2)n2nccc2n1 the results were hNpr1 antagonist 0.0%[70.6 µM].
`CCOC(=O)C[C@@H]1C[C@@H](C(C)C)[C@H](CNC(=O)NC(C)C)C=C1C` gave hNpr1 antagonist -9.7%[70.6 µM].
For COc1ccccc1NC(=O)Cn1c(=O)n(-c2cccc(C)c2)c(=O)c2c1cc(C)n2C the results were hNpr1 antagonist -5.5%.
`O=C(CN1C(=O)NC(c2ccccc2Cl)C2=C1COC2=O)Nc1ccc(C(F)(F)F)cc1` (centres undefined) gave hNpr1 antagonist 0.6%.

Among those listed so far, these have a CF3 group.
CN(Cc1cccnc1)c1ccc2ncc(Nc3cccc(C(F)(F)F)c3)n2n1 was read as hNpr1 antagonist 12.6µM*.
`O=C(CN1C(=O)NC(c2ccccc2Cl)C2=C1COC2=O)Nc1ccc(C(F)(F)F)cc1` (centres undefined) gave hNpr1 antagonist 0.6%.

(continued)
`CCOc1ccccc1CN1CCCCCNC(=O)[C@@H]2CCC[C@@H]21` gave hNpr1 antagonist -10.4%.
CC(C)CCN1CCC(C2CCN(C(=O)c3ccnn3C)C2)CC1 (centres undefined) was read as hNpr1 antagonist -2.3%.
Screening COc1ccc(CNC(=O)CN2C(=O)NC3(CCC(C(C)(C)C)CC3)C2=O)cc1OC (centres undefined) returned hNpr1 antagonist 5.1%.
For COc1ccc(CCN2CCC(CN(C)C(=O)c3ccccc3SC)CC2)cc1 the results were hNpr1 antagonist 2.0%.
For COc1cccc(C(=O)N[C@@H]2CN(C)C[C@H]2CN(C)C)c1OC the results were hNpr1 antagonist 5.1%.
For Cc1ccc(CN2CCNC(=O)C2CC(=O)NC2(CO)CCCC2)cc1 (centres undefined) the results were hNpr1 antagonist 4.7%.
O=C([C@H]1CNC[C@H](C(=O)N2CCN(c3ccncc3)CC2)C1)N1CCCC1 was read as hNpr1 antagonist 1.1%.
For CCCCc1cc(C[C@@H]2C[C@H](NC(=O)NC(C)C)C2(C)C)no1 the results were hNpr1 antagonist -17.3%[70.6 µM].
`CCCc1noc(-c2cn(C3CCN(C(=O)c4cccc(F)c4)CC3)nn2)n1` gave hNpr1 antagonist 0.0%.
For CC(=O)N1CCC2(CC1)C(=O)NN=C2c1ccncc1 the results were hNpr1 antagonist 13.4%[70.6 µM].
For COCCN1CCCCCC(O)c2cc(C(=O)N3CCN(c4cccc(OC)c4)CC3)ccc21 (centres undefined) the results were hNpr1 antagonist -5.1%.
For COCCN1C(=O)[C@H]2CN(Cc3ccccc3C(F)(F)F)C[C@H]2C1=O the results were hNpr1 antagonist -5.1%.
For COc1ccc(C(CC(=O)NCc2cccnc2)c2ccccc2)cc1 (centres undefined) the results were hNpr1 antagonist inconclusive.
For CC(C)NC(=O)N1CCOc2ccc(CCC(=O)O)cc2C1 the results were hNpr1 antagonist 4.3%.
For CCNc1cc(N2CCC(CCC(=O)NCc3ccc(OC)cc3)CC2)ncn1 the results were hNpr1 antagonist -24.9%.

3 compounds picked at random from the list so far:
For COCCN1CCCCCC(O)c2cc(C(=O)N3CCN(c4cccc(OC)c4)CC3)ccc21 (centres undefined) the results were hNpr1 antagonist -5.1%.
CC(C)CCN1CCC(C2CCN(C(=O)c3ccnn3C)C2)CC1 (centres undefined) was read as hNpr1 antagonist -2.3%.
For COCCN1C(=O)[C@H]2CN(Cc3ccccc3C(F)(F)F)C[C@H]2C1=O the results were hNpr1 antagonist -5.1%.

Remaining list, next part.
Screening CC1(C(=O)N2CCC(c3ccccc3)CC2)CCc2cnc(N3CCOCC3)nc21 (centres undefined) returned hNpr1 antagonist -19.5%[70.6 µM].
Screening Cc1noc(-c2cn(C3CCN(C(=O)c4ccc(F)cc4)CC3)nn2)n1 returned hNpr1 antagonist -17.5%.
Screening CC(C)CNC(=O)C(NC(=O)c1ccccc1Cl)C1CCN(C(=O)c2ccccc2F)CC1 (centres undefined) returned hNpr1 antagonist -2.1%.
`CC(=O)N[C@H]1CO[C@H]2[C@@H]1OC[C@@H]2Nc1nccc(C2CCCC2)n1` gave hNpr1 antagonist -14.7%[70.6 µM].
Screening COc1ccccc1N1CCN(C(=O)C[C@@H]2CCNC[C@@H]2Cc2cc(-c3ccc(F)cc3)on2)CC1 returned hNpr1 antagonist -0.7%.
For C#CCNC(=O)C[C@@H]1O[C@H](CNC(=O)Nc2ccc(C)cc2)[C@@H](O)[C@H]1O the results were hNpr1 antagonist 6.2%[70.6 µM].
Screening O=C([C@@H]1C[C@H](F)CN1S(=O)(=O)c1cccc(C(F)(F)F)c1)N1CCCCC1 returned hNpr1 antagonist 2.4%.
CC(=O)Nc1ccc(C2(C(=O)N(C)Cc3ccccc3)CCCCC2)cc1 was read as hNpr1 antagonist 2.1%.
Screening CCn1nccc1C(=O)N1CCC2(CC1)CCC(O)(CN(C)C)CC2 returned hNpr1 antagonist 2.1%.
Screening O=C(c1ncccn1)N1CCc2c(n(CCOc3ccccc3)n(-c3ccccc3)c2=O)C1 returned hNpr1 antagonist -9.4%.
Screening COCCN1CCCC2(CCN(C(=O)CCN(C)S(C)(=O)=O)C2)C1=O (centres undefined) returned hNpr1 antagonist -6.3%.
Screening O=C(c1ccsc1)N1CCC2(CC1)CC(N(Cc1ccc(F)cc1)C1CC1)CCO2 (centres undefined) returned hNpr1 antagonist -22.0%.
`COc1ccc2nc3n(c2c1)[C@@H](CNCc1ccc(C(F)(F)F)cc1)COC3` gave hNpr1 antagonist 35.5µM*.
Cc1cc(C)cc(NC(=O)Cn2nc3c(cc2=O)CCCCC3)c1 was read as hNpr1 antagonist -2.5%.
Screening COCCN1C(=O)c2ccccc2C(C(=O)NCCC2=CCCCC2)C12CCCC2 (centres undefined) returned hNpr1 antagonist -0.9%.
COc1ccc(S(=O)(=O)N2C[C@@H]3C[C@H](C2)c2c(NC(=O)c4ccc5c(c4)OCO5)ccc(=O)n2C3)cc1 was read as hNpr1 antagonist -3.1%.
O=C(O)CN1CCNc2nc(CNc3ccc(F)cc3)n(Cc3ccccc3)c2C1=O was read as hNpr1 antagonist 2.8%[70.6 µM].
Screening CCO[C@H]1CN(Cc2cc3c(cc2OC)OCCCO3)C[C@@H]1O returned hNpr1 antagonist 6.9%.
For O=C(NC1CCN(c2cc(-c3ccccc3)[nH]n2)CC1)c1ccc(F)cc1F the results were hNpr1 antagonist -10.5%.
`O=C(C[C@@H]1CCNC[C@@H]1Cc1cc(-c2ccccc2)on1)NCc1ccccc1` gave hNpr1 antagonist -16.9%[70.6 µM].
`O=C(Nc1ccccc1)N1CCC(Oc2ncccc2C(=O)N2CCCCC2)C1` (centres undefined) gave hNpr1 antagonist -17.1%.
Screening COc1ccc(-c2ccnc3nc(Cc4ccc(F)cc4)nn23)cc1 returned hNpr1 antagonist -0.2%.
`CC(C)CCN1CCOc2cc([S+](=O)([O-])Nc3nncs3)ccc2C1` gave hNpr1 antagonist 0.3%[70.6 µM].
Screening CC(C)C1(CNC(=O)c2coc(COc3ccc4c(c3)OCO4)n2)CC1 returned hNpr1 antagonist -1.1%.
O=C1NCCCCCN(C(=O)CCC2CCCC2)[C@H]2CCCC[C@@H]12 was read as hNpr1 antagonist 0.0%.
Screening O=C(c1ccc(-c2noc(C3CC3)n2)cc1)N1CCC2(CCOCC2)CC1 returned hNpr1 antagonist -2.7%.
For O=C(NCc1ccc(C(F)(F)F)cc1)C1CN(c2cccc(Cl)c2)C(=O)N1 (centres undefined) the results were hNpr1 antagonist 0.0%.
Screening COCC(=O)N[C@H]1CCN2C(=O)c3cc(-c4cc(Cl)ccc4OC)ccc3NC(=O)[C@@H]2C1 returned hNpr1 antagonist 3.8%.
For CN(CCc1ccccn1)C(=O)CCC[C@H]1NC[C@@H]2CC1CN(Cc1ccccc1)C2 the results were hNpr1 antagonist 3.3%.
For CN(C)Cc1cc(CC2(NCc3ccccc3Cl)COC2)no1 the results were hNpr1 antagonist 5.2%[70.6 µM].

Bioassay records deposited in PubChem BioAssay by National Center for Advancing Translational Sciences (NCATS).
